StopGo reporter: High Throughput Screening for Foot and Mouth Disease Virus Antivirals; Potency, µM (doses to about 57.9 µM), inactives show at the highest dose signal change, negative = less light; human cells with a luciferase reporter of 2A StopGo recoding; control for the full effect not named in the record; actives 1.2% (n = 410,000); active = well fitted falling curve with a large enough effect; inconclusive = small, poorly fitted or top-dose-only effect; inactive = no such curve, though single readings can be large or run the other way; tested in HEK293T cells; further: on the % scale 0 is the no-effect control and ±100 the full control effect; nearly all actives have a fitted effect of over 45% in size; luciferase light after 4 h
RE007 growth inh: qHTS Assay for Inhibitors of the HIV-1 protein Vpr. S. pombe RE007 Vpr strain, BacTiter-Glo ATP luminescence, 24 h; control for the full effect not named in the record. Potency, µM (top dose mostly 92.2 µM), inactives show at the highest dose activity change, negative = less growth. actives 0.21% (n = 360,000). AID 651644, 2012; active = well fitted falling curve with a large enough effect; inconclusive = small, poorly fitted or top-dose-only effect; inactive = no such curve, though single readings can be large or run the other way;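 further: on the % scale 0 is the no-effect control and ±100 the full control effect; nearly all actives have a fitted effect of over 50% in size; the assay follows cell death caused by Vpr and the record does not say whether a fall means rescue or toxicity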
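Fission yeast RE007 carrying one integrated HIV-1 vpr copy, seeded at OD 0.01 in PMG+AL medium with 23 nL pinned compound. Grown 24 h at 30 degrees; viability read by BacTiter-Glo luminescence after 5 min.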
Cruzain inh Det: qHTS Assay for Promiscuous and Specific Inhibitors of Cruzain (with detergent) | Cruzipain (Trypanosoma cruzi), P25779 | purified cruzain, Z-FR-AMC fluorescence, 0.01% Triton | Potency, µM, for the others: max response, negative = inhibition, usual class: inhibitors | actives 0.43% (n = 200,000) | AID 1478, 2009; active means well fitted curve in the direction sought with a large enough effect; inconclusive means small, poorly fitted or top-dose-only effect, or another doubt; inactive means no such curve, though single readings can be large; an effect the other way counts as inactive or inconclusive;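 further: plate controls were neutral wells for no effect and buffer without enzyme for full effect; nearly all actives have a fitted effect of over 40% in size; top concentration of the series not given in the record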
Target sequence (P25779 123-467 limits assumed): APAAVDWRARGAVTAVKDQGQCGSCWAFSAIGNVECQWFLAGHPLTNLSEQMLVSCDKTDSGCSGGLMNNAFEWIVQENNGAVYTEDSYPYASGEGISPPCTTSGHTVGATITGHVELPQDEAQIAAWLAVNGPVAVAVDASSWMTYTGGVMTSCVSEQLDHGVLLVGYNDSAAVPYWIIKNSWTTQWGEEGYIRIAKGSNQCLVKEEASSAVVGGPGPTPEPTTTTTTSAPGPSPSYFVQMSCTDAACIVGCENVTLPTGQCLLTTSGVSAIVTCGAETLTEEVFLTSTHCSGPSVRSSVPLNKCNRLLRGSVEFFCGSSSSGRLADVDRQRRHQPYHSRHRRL
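Read-out: AMC fluorescence (360 nm excitation, 450 nm emission), four reads over 2 min, first-to-third difference used. Conditions: cruzain 1.5 nM, Z-FR-AMC 2 uM, pH 5.5 acetate, 5 mM DTT, 0.01% Triton X-100.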
SARS PLpro yeast: qHTS of Yeast-based Assay for SARS-CoV PLP. actives 0.19% (n = 330,000). Potency, µM (doses to about 32.9 µM), inactives show top-dose activity, positive = growth rescue. S. cerevisiae expressing SARS-CoV PLpro, growth rescue; control for the full effect not named in the record; further: 0% is about no effect; nearly all actives have a fitted effect of over 55% in size; growth read by luminescence after 48 h
Lassa entry inh: qHTS for Inhibitors of binding or entry into cells for Lassa Virus; Lassa virus pseudotype entry inhibition, cell reporter; control for the full effect not named in the record; Potency, µM (series often up to 37.9 µM), without a hit: top-dose activity change, negative = inhibition, actives largely listed as inhibitors; actives 1.2% (n = 300,000); AID 540256, 2011; active means well fitted inhibition curve with a large enough effect; inconclusive means small, poorly fitted or top-dose-only effect, or effect the other way; inactive means flat fitted curve, though single readings scatter; tested in HEK293 cells; further: on the % scale 0 is the no-effect control and ±100 the full control effect; nearly all actives have a fitted effect of over 50% in size; luciferase read-out
MARV entry inh: qHTS for inhibitors of binding or entry into cells for Marburg Virus. Marburg virus pseudotyped entry inhibition, cell reporter; control for the full effect not named in the record; about a third of the inactives were read at about 46 µM. Potency, µM (doses to about 37.8 µM), without a hit: at the highest dose activity change, negative = inhibition, most hits filed as inhibitors. actives 1.8% (n = 300,000); active = well fitted inhibition curve with a large enough effect; inconclusive = small, poorly fitted or top-dose-only effect, or effect the other way; inactive = flat fitted curve, though single readings scatter; tested in HEK293 cells; about a fifth of its hits are not listed in these tables; further: on the % scale 0 is the no-effect control and ±100 the full control effect; luciferase read-out
NS1 inh: qHTS Assay for Inhibitors of Influenza NS1 Protein Function. S. cerevisiae slowed by influenza A NS1, growth recovery by OD600. Potency, µM (top dose mostly 46.1 µM), without a hit: top-dose activity, positive = more growth. actives 0.4% (n = 270,000); further: actives are rising curves; nearly all actives have a fitted effect of over 50% in size
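Recovery from NS1-induced slow growth read by OD600 in budding yeast switched to galactose assay medium (pH 6.0, -URA) at 1:100 dilution. Compound 23 nl per well; the matching strain lacking NS1 serves as control.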
Cruzain noTriton: qHTS Assay for Promiscuous and Specific Inhibitors of Cruzain (without detergent) | Cruzipain (Trypanosoma cruzi), P25779 | purified cruzain, Z-FR-AMC fluorescence, no detergent | Potency, µM, for the others: max response, negative = inhibition, most hits filed as inhibitors | actives 2.3% (n = 200,000); active means well fitted curve in the direction sought with a large enough effect; inconclusive means small, poorly fitted or top-dose-only effect, or another doubt; inactive means no such curve, though single readings can be large; an effect the other way counts as inactive or inconclusive;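 further: plate controls were enzyme without inhibitor for no effect and buffer without enzyme for full effect; nearly all actives have a fitted effect of over 40% in size; top concentration of the series not given in the record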
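Purified cruzain at 1.5 nM, pre-incubated 15 min with compound at room temperature in 100 mM sodium acetate pH 5.5, 5 mM DTT, 0.00005% Triton X-100. Reaction started with 2 uM Z-FR-AMC; AMC fluorescence increase over 60 s gives rate.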
* hit, by the source's call; ? = inconclusive; nt = not tested or not shown; [ ] = dose if it differs, or a comment. Unless noted, the call rests on the fitted dose curve; in most records, active means well fitted rising curve with a large enough effect; inconclusive means small, poorly fitted or top-dose-only effect; inactive means no such curve, though single readings can be large or run the other way. Potency means the concentration at half of the fitted maximal effect.

Keys: A = StopGo reporter; B = RE007 growth inh; C = Cruzain inh Det; D = SARS PLpro yeast; E = Lassa entry inh; F = MARV entry inh; G = NS1 inh; H = Cruzain noTriton
O=C(CCS(=O)(=O)c1ccc(Br)cc1)Nc1ccccc1Cl
  A: -26%	B: 5%	C: nt	D: -2%	E: nt	F: nt	G: 5%	H: nt
Cc1ccc(S(=O)(=O)N2CCOCC2)cc1NC(=O)CSc1ccccn1
  A: 5%	B: 6%	C: nt	D: 2%	E: 2%[46.1 µM]	F: -19%[46.1 µM]	G: 4%	H: nt
CSc1cccc(N2C(=O)N(Cc3ccc([N+](=O)[O-])cc3)c3ccccc3S2(=O)=O)c1
  A: ?	B: nt	C: 4.0%	D: nt	E: ?	F: nt	G: nt	H: ?
COc1cc(NC(=O)C23CC4CC(C2)CC(n2cnc([N+](=O)[O-])n2)(C4)C3)cc(OC)c1
  A: -15%	B: -1%	C: -3.1%	D: 16%	E: -11%	F: 2.5µM*	G: -12%	H: 2%
CC(C)(C)C(=O)/C=c1\[nH]c(=O)/c(=C\c2ccccc2F)s1
  A: -19%	B: 2%	C: nt	D: -2%	E: -26%[46.1 µM]	F: -17%[46.1 µM]	G: nt	H: nt
Cc1ccc(Cn2cc(/C=N/Nc3ccc([N+](=O)[O-])cn3)c3ccccc32)cc1
  A: -20%	B: 79%	C: -4.0%	D: 10%	E: -26%[46.1 µM]	F: ?	G: 10%	H: 6.3µM*
CC(NC(=O)COc1ccccc1F)C1CC2CCC1C2 (stereo not given)
  A: -16%	B: 18%	C: nt	D: -9%	E: -2%	F: ?	G: nt	H: nt
CCOC(=O)c1ccc2c(c1)N(Cc1cccc([N+](=O)[O-])c1)C(=O)c1ccccc1S2
  A: -21%	B: nt	C: -3.0%	D: nt	E: -11%[46.1 µM]	F: nt	G: nt	H: -9%
CN(C)/C=C(/C(=O)c1ccc(Cl)cc1)S(C)(=O)=O
  A: -6%	B: -3%	C: nt	D: 0%	E: -5%	F: ?	G: 1%	H: nt
CCOc1cccc(NC(=O)CSc2nncn2N)c1
  A: nt	B: 5%	C: 3.9%	D: -2%	E: 2%	F: ?	G: -2%	H: -11%

Of the compounds above, 4 have a nitro group on carbon.
Keys: A = StopGo reporter; B = RE007 growth inh; C = Cruzain inh Det; D = SARS PLpro yeast; E = Lassa entry inh; F = MARV entry inh; G = NS1 inh; H = Cruzain noTriton
CSc1cccc(N2C(=O)N(Cc3ccc([N+](=O)[O-])cc3)c3ccccc3S2(=O)=O)c1
  A: ?	B: nt	C: 4.0%	D: nt	E: ?	F: nt	G: nt	H: ?
COc1cc(NC(=O)C23CC4CC(C2)CC(n2cnc([N+](=O)[O-])n2)(C4)C3)cc(OC)c1
  A: -15%	B: -1%	C: -3.1%	D: 16%	E: -11%	F: 2.5µM*	G: -12%	H: 2%
Cc1ccc(Cn2cc(/C=N/Nc3ccc([N+](=O)[O-])cn3)c3ccccc32)cc1
  A: -20%	B: 79%	C: -4.0%	D: 10%	E: -26%[46.1 µM]	F: ?	G: 10%	H: 6.3µM*
CCOC(=O)c1ccc2c(c1)N(Cc1cccc([N+](=O)[O-])c1)C(=O)c1ccccc1S2
  A: -21%	B: nt	C: -3.0%	D: nt	E: -11%[46.1 µM]	F: nt	G: nt	H: -9%

Back to the main list with the 4 entries that preceded the break.
Keys: A = StopGo reporter; B = RE007 growth inh; C = Cruzain inh Det; D = SARS PLpro yeast; E = Lassa entry inh; F = MARV entry inh; G = NS1 inh; H = Cruzain noTriton
CC(NC(=O)COc1ccccc1F)C1CC2CCC1C2 (stereo not given)
  A: -16%	B: 18%	C: nt	D: -9%	E: -2%	F: ?	G: nt	H: nt
CCOC(=O)c1ccc2c(c1)N(Cc1cccc([N+](=O)[O-])c1)C(=O)c1ccccc1S2
  A: -21%	B: nt	C: -3.0%	D: nt	E: -11%[46.1 µM]	F: nt	G: nt	H: -9%
CN(C)/C=C(/C(=O)c1ccc(Cl)cc1)S(C)(=O)=O
  A: -6%	B: -3%	C: nt	D: 0%	E: -5%	F: ?	G: 1%	H: nt
CCOc1cccc(NC(=O)CSc2nncn2N)c1
  A: nt	B: 5%	C: 3.9%	D: -2%	E: 2%	F: ?	G: -2%	H: -11%
N#C/C(=C\c1ccccc1)C(=O)N1CCN(c2ccccc2F)CC1
  A: -22%	B: 3%	C: nt	D: -40%	E: -6%	F: -9%[46.1 µM]	G: 9%	H: nt
c1ccc2c(COn3nnc4ccccc43)cccc2c1
  A: 38%[activator]	B: -5%	C: -1.2%	D: -12%	E: 91%[14.3 µM]	F: 2%	G: -83%	H: -9%
CCc1cccc(NC(=O)Cn2c(=O)n(-c3ccccc3C)c(=O)c3c2c2cc(C)ccc2n3C)c1
  A: -17%	B: nt	C: -1.8%	D: nt	E: 23%[46.1 µM]	F: nt	G: nt	H: -9%
CCn1c(CNC(=O)c2ccccc2)nc2ccccc21
  A: nt	B: 8%	C: nt	D: nt	E: 5%	F: 11%	G: -2%	H: nt
CN(C)S(=O)(=O)c1ccc(NC(=O)C2COc3ccccc3O2)cc1 (stereo not given)
  A: 21%	B: -7%	C: -5.0%	D: 19%	E: nt	F: nt	G: -1%	H: 6%
NC(=S)Nc1ccc(Cl)c(Cl)c1
  A: 7%	B: 12%	C: nt	D: 0%	E: nt	F: nt	G: 6%	H: nt
COc1ccc(CNC(=O)OCc2nccnc2C(=O)Nc2ccc(Br)cn2)cc1
  A: ?	B: -1%	C: nt	D: -1%	E: nt	F: nt	G: 2%	H: nt
Cc1ccccc1C(=O)OCc1cc(=O)n2nc(C(C)C)sc2n1
  A: 36%[activator]	B: nt	C: -2.6%	D: nt	E: ?	F: nt	G: nt	H: 2%
Nc1nc(SCc2ccccc2Cl)[nH]c(=O)c1-c1ccccc1
  A: 11%	B: 5%	C: -4.2%	D: -1%	E: -4%	F: -12%	G: 3%	H: 15%
COc1ccccc1N1CCN(Cc2c(F)cccc2Cl)CC1
  A: -22%	B: -2%[3.69 µM]	C: -2.1%	D: -2%	E: 0%	F: -5%	G: -1%	H: -10%

Later entries
Keys: A = StopGo reporter; B = RE007 growth inh; C = Cruzain inh Det; D = SARS PLpro yeast; E = Lassa entry inh; F = MARV entry inh; G = NS1 inh; H = Cruzain noTriton
COC(=O)C(NC(=O)C(NC(=O)C1CCC(C)CC1)C(C)C)C(C)C (stereo not given)
  A: -9%	B: -16%	C: nt	D: nt	E: -3%	F: -2%[46.1 µM]	G: nt	H: nt
O=C1C(c2ccc(F)cc2)N(CCc2ccc(Cl)cc2)C(=O)CN1C1CCCCCC1 (stereo not given)
  A: -23%	B: nt	C: 0.4%	D: nt	E: 26%[46.1 µM]	F: nt	G: nt	H: -8%
COc1cc(C(=O)Nc2ccc3nc(SCc4ccc(C)cc4)sc3c2)cc(OC)c1OC
  A: ?	B: nt	C: 8.2%	D: nt	E: -2%[46.1 µM]	F: -29%[46.1 µM]	G: nt	H: 28%
O=S(=O)(NC1c2cccc3cccc(c23)C1N1CCNCC1)c1ccc(Cl)cc1 (stereo not given)
  A: -2%	B: 7%	C: nt	D: 4%	E: ?	F: ?	G: 5%	H: nt
CC1CC(C)(C)NC(=S)N1CCCC(=O)NCc1ccccc1 (stereo not given)
  A: 4%	B: -17%	C: nt	D: 6%	E: 7%	F: -1%[46.1 µM]	G: nt	H: nt
CCN1CCN(c2ccc(S(=O)(=O)N3CCCCC3)cc2NC(=O)/C=C/c2ccc(OC(F)F)cc2)CC1
  A: -17%	B: 28%	C: nt	D: 0%	E: 6.3µM*	F: ?	G: nt	H: nt
COCCNC(=O)COC(=O)/C=C/c1c(C)nn(Cc2ccc(Cl)cc2Cl)c1Cl
  A: ?	B: 31%	C: 1.1%	D: 0%	E: ?	F: ?	G: 9%	H: ?
Oc1ccccc1/C=N/n1cnn(Cc2ccccc2Cl)c1=S
  A: 35%[activator]	B: -6%	C: -2.4%	D: 5%	E: 1%	F: 1%	G: 20%	H: ?
Cc1ccc(NC2c3ncccc3C(=O)N2c2ccccc2C)cc1C (stereo not given)
  A: 0%	B: -16%	C: ?	D: -1%	E: 16%	F: ?	G: -7%	H: -26%
CSc1ccccc1NC(=O)c1cc(CC(C)C)on1
  A: 29%	B: -9%	C: 3.7%	D: -8%	E: nt	F: nt	G: -12%	H: -12%

High-throughput results from PubChem BioAssay.

Compounds were not picked by outcome. Share with any hit: about 4.7%.
